Bfl-1 A1 inh – inhibitors of the anti-apoptotic protein A1, read as caspase activation; caspase activation, % (test concentration not listed); MEF A1-2A-BIM cells, Caspase-Glo 3/7 luminescence, 3 h; percent of clofoctol response, vehicle zero; hit rate 0.066% among 330,000;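 active = over half of replicate activation scores above 10%, or exactly half above 10 with the replicate mean above 10; inconclusive = replicate mean below 10 yet half the replicates above 10; inactive = over half of replicates below 10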;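 note: wells of about 30 µL received 50 nL stock; many hits fall short of the cut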
Ecoli growth – inhibitors of Escherichia coli growth; OD600, 23 h; hits give low values; OD600 absorbance (concentration not given with the values); hit rate 0.21% among 330,000;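 active = OD600 absorbance below the run mean of sample wells minus 3.6 SD, in any replicate, cut at about 0.56 in these data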;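 note: stock transfer was 300 nL into about 60 µL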
HNF4A DNA FP – change in binding of human HNF4 alpha to DNA | AID 1224865 | hit rate 0.3% among 360,000 | HNF4a-FITC DNA binding, fluorescence polarization, 1 h | activity change, % at 10 µM | P41235; in the data active = activity change above about 30%, passing the limit was not always enough;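 note: controls were the assay level and a saturating level of protein; the project sought stronger binding though the title names inhibitors; some compounds called inactive have numbers as strong as hits; positive values seem to mean higher polarization but the record does not say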
UCH37 DUB inh – inhibitors of human deubiquitinating enzyme UCH37; purified proteasome/UCH37, Ub-AMC cleavage fluorescence; inhibition, % (concentration not given with the values); hit rate 0.33% among 330,000;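 active = mean of two replicates above 20%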;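 note: 0% = compound-free wells with enzyme and 100% = wells lacking proteasome; stock transfer was 100 nL into about 20 µL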
Target sequence (Q9Y5K5 whole entry, looked up): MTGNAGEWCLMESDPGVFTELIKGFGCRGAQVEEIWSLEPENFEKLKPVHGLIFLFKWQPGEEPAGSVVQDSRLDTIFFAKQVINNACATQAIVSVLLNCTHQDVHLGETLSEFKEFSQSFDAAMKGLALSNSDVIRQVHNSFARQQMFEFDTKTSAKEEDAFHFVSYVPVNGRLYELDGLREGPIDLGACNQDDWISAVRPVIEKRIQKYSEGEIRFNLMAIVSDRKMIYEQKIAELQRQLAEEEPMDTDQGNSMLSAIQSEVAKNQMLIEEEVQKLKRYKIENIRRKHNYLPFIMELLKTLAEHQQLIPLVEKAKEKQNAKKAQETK
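Schedule: 30 min plus 25 min, room temperature / Material: human UCH37 within purified proteasomes / Technique: AMC fluorescence intensity at 355/460 nm / Buffer or medium: pH 7.4 Tris-HCl (50 mM) with ovalbumin, ATP-MgCl2, DTT / Controls: wells without proteasome as full block, compound-free enzyme plus substrate as uninhibited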
Beta2AR agonist – agonists of human beta-2 adrenergic receptor inducing internalization; response, % (concentration not given with the values); Am2.2-beta2AR cells, FAP receptor internalization, flow cytometry; reference of the scale not given here; AID 504454; P07550; hit rate 0.43% among 340,000;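 active = response above a set limit, near 3 SD of response in nonfluorescent compounds, cut at about 42% in these data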;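 note: stock transfer was 100 nL into about 11 µL; a reference agonist was the positive control; negative values mostly stem from fluorescent compounds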
Target sequence (P07550 whole entry, looked up): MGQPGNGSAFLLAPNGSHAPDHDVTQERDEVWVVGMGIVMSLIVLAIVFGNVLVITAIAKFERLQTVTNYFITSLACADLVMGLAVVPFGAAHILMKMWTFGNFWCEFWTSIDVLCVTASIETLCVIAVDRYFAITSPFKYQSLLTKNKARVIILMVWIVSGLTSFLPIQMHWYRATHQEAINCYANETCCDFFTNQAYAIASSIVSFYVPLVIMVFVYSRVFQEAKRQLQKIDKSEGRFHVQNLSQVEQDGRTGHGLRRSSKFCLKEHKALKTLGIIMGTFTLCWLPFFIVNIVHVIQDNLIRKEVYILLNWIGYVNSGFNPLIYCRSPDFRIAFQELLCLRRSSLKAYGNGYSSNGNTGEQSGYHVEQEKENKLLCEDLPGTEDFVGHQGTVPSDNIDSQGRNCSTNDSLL
LANA-H2A inh – blocks KSHV LANA binding to histone H2A/H2B | Q9QR71 | cell-free LANA-H2A/H2B peptide, fluorescence polarization | inhibition, % (concentration not given with the values) | hit rate 0.6% among 320,000 | AID 2629; in the data active = inhibition mostly above about 10%, no sharp cut-off; inactive = mostly below about 6.7%;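 note: stock transfer was 7.5 nL into about 10 µL; 0% = median of vehicle wells and 100% = median of positive control wells; one replicate is shown; the record names a cut of 25% in any replicate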
Vif A3G – HIV-1 Vif–A3G interaction blockers – biochemical, TR-FRET, GST-Vif 1-94, biotin-A3G peptide, dose response retest, primary screen (AID 1117319); TR-FRET GST-Vif / biotin-A3G peptide binding; higher % means a stronger effect; test concentration not given here; strong numbers were not always called active; one-dose inhibition, %; IC50 in µM for titrated hits; hit rate 0.57% among 260,000;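 active = above the screen mean plus three standard deviations and confirmed in dose response; inconclusive = results disagree or hit not tested in dose response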;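 note: Vif residues 1-94 fused to GST binding biotinylated APOBEC3G peptide 110-148; 0% = full assay without inhibitor and 100% = GST in place of GST-Vif; retest series ran down from 100 µM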
* = called active by the depositor; i = inactive; ? = inconclusive; / = no result given. The order is random; overall some 2.1% were active at least once.

compound	Bfl-1 A1 inh	Ecoli growth	HNF4A DNA FP	UCH37 DUB inh	Beta2AR agonist	LANA-H2A inh	Vif A3G
CCc1cc(C(=O)N2CCCC(C(=O)c3ccc(Cl)cc3)C2)no1 (stereo unspecified)	-0.4	0.667	1.7	1.8	-1.3	-7.3	/
O=CN1CCN(C(C(=O)NC2CCCC2)c2cc3c(cc2[N+](=O)[O-])OCO3)CC1 (stereo unspecified)	-0.1	0.662	1.8	2.4	-8.8	-1.1	?
COc1cccc(C(=O)Nc2ccc(N3CCCC3)cc2)c1	0.3	0.739	4.9	7.1	9.0	8.6	8.5%
CC1(C)C(C(=O)OCC(Cl)(Cl)Cl)N2C(=O)C(NC(=O)Cc3ccccc3)C2S1=O (stereo unspecified)	-0.5	0.669	2.7	0.6	-0.1	0.3	/
C[C@@H](C(=O)Nc1nc2ccccc2s1)N1C(=O)C2CC=CCC2C1=O (stereo partly specified)	-0.1	0.701	0.6	-2.5	1.5	-5.1	/
CCn1c(SCC(=O)N2CCCc3ccccc32)nc2cccnc21	1.4	0.716	2.2	0.1	0.1	2.9	?
O=C(O)c1cccc(-n2cc(-c3cccc(C(F)(F)F)c3)cn2)c1	-3.2	/	0.9	/	14.9	2.4	-4.7%
CCc1ccc(OCCCC(=O)NCc2ccco2)cc1	0.5	0.66	-0.8	7.1	-1.0	-4.5	3.6%
Cc1ccc(-c2cnc3c(Cl)c(C)nn3c2)cc1	-7.5	0.673	-0.3	-11.2	-18.9	0.3	-3.7%
CCOC(=O)C1=C(CC)Nc2ccccc2N=C1NC(=O)c1cc(S(=O)(=O)N(C)C)ccc1Cl	0.0	0.723	-1.0	0.2	3.9	-0.4	0.5%
COc1ccccc1N1CCN(C(=O)CSc2nnc(NC(=O)C3CCC3)s2)CC1	1.0	0.699	-2.2	0.8	-2.6	5.2	-1.4%
CN(C)c1ccc(C(=O)NC2CCCc3ccccc32)cc1 (stereo unspecified)	0.9	0.66	-4.1	-0.3	-1.4	1.2	-9.2%
CCOC(=O)C1CCN(C(=O)CCn2c(=O)[nH]c3ccsc3c2=O)CC1	-0.1	0.722	-4.0	3.0	-15.2	1.5	-3.4%
CCOC(=O)/C(=C/c1cn(C)c2ccccc12)NC(=O)c1ccccc1	0.5	0.683	1.1	11.4	-3.1	-0.5	/
COc1ccc(NC(=O)C2CCCN(c3ncnc4onc(-c5ccc(F)cc5)c34)C2)cc1 (stereo unspecified)	1.3	0.699	-3.4	2.8	1.5	3.5	/
Cc1cccc(C)c1OCC(=O)Nn1c(C)nc2ccccc2c1=O	-0.1	0.747	-1.1	-1.2	-2.3	-5.8	-3.6%
COc1ccccc1OCCNC(=O)CNC(=O)c1ccc2c(c1)OCO2	1.2	0.597	0.0	0.2	-1.8	-9.7	6.7%
CC1CCCCN1C(=O)CSc1nnc(-c2ccccc2F)o1 (stereo unspecified)	-0.5	0.692	-0.2	1.7	-8.6	3.2	/
Cc1ccc(N(CN2C(=O)C3C4CCC(C4)C3C2=O)C(=O)c2ccco2)cc1 (stereo unspecified)	0.4	0.652	-4.3	5.0	-6.7	-0.5	/
CCCCN1CC(COCc2ccccc2)OCCS1(=O)=O (stereo unspecified)	/	/	-1.9	/	-2.5	/	-1.5%
Cc1ccc(CN2CCN(Cc3cccc4c3OCO4)CC2CCO)cc1 (stereo unspecified)	0.0	0.733	0.2	-0.4	14.7	-9.2	-18.1%
S=C(NNc1ccnc2cc(Cl)ccc12)Nc1ccccc1Cl	-0.1	0.676	30.1	6.9	-3.8	-0.2	/
COc1ccccc1N1CCN(CCCCN2C(=O)C3CCCCN3C2=O)CC1 (stereo unspecified)	0.5	0.662	-4.5	3.6	-6.2	-3.2	-4.5%
ON=C1/C(=N\O)CC2(C/C1=N/O)OCCO2	0.6	/	-3.8	/	-3.2	-2.0	28.2%
COCCNc1nc2c(c(=O)n(Cc3cccc(Cl)c3)c(=O)n2C)n1C	0.1	0.666	1.4	2.8	4.8	0.6	-4.3%
CC1(C)C(=O)CCC2(C)C1=CCC1C2C(=O)CC2(C)C1CCC2(O)C(=O)CO (stereo unspecified)	/	0.661	6.6	3.9	-2.1	/	-4.2%
Cc1cccc(NC(=O)c2ccc(NC(C)c3ccccc3)c([N+](=O)[O-])c2)n1 (stereo unspecified)	-0.7	0.681	4.6	2.5	1.6	-2.2	6.8%
Cc1cc(=O)oc2c3c(cc(OCC(=O)NCC4CCC(C(=O)O)CC4)c12)OC(C)(C)CC3 (stereo unspecified)	-0.1	0.706	-0.1	i	-1.3	-11.0	/
CC(CCN1CCC(n2nccc2NC(=O)c2ccccc2Cl)CC1)c1ccccc1 (stereo unspecified)	0.4	0.709	1.2	2.6	-2.3	-5.3	-0.7%
COc1ccc(-c2cc(=NC(CC(C)C)C(=O)O)c3cc(C)ccc3o2)cc1 (stereo unspecified)	-0.6	0.7	9.6	i	-7.5	/	20.7%
CC(C)CC1Nc2ncnc(N3CCCCC3)c2N(Cc2ccc(Br)cc2)C1=O (stereo unspecified)	0.7	0.719	2.8	0.7	-2.1	-0.4	/
CC(=O)Nc1ccc(S(=O)(=O)NNC(=O)COc2ccc(Cl)cc2Cl)cc1	-0.7	0.671	2.1	1.6	-5.2	-5.3	/
Cc1ccc(CNC(=S)Nc2ccc(OC(F)F)cc2C)cc1	-0.6	0.73	0.5	0.7	10.1	2.2	14.7%
CC1(C)CC(=O)C(C=NCC(N)=O)=C(O)C1	0.1	0.676	-3.3	1.4	-6.3	-9.2	0.1%
CCOc1ccc(Nc2ccc([N+](=O)[O-])c3nonc23)cc1	-5.1	0.685	12.4	5.9	19.3	-1.6	/
N/C(=N\NS(=O)(=O)c1ccc(Cl)cc1)c1ccccn1	0.9	0.661	-2.0	3.2	-3.4	-4.9	/
CC1CN(Cc2nc3c(c(=O)n(C)c(=O)n3C)n2CC(O)CO)CC(C)O1 (stereo unspecified)	0.5	0.649	-2.4	-0.1	7.8	-0.5	3.3%
COc1ccc2[nH]c(C)c(CCNC(=S)Nc3cc(C)cc(C)c3)c2c1	1.7	0.682	1.2	4.5	10.4	-5.9	-2.2%
CCOC(=O)N1CCN(C(=O)c2cccn3c(=O)c4c5c(sc4nc23)CCCC5)CC1	-0.2	0.668	2.7	-14.1	-6.5	0.5	2.6%
CN1CCN(C(=O)c2c(O)c3cccc4c3n(c2=O)CCC4)CC1	0.2	0.733	-0.8	-6.0	-0.1	-0.4	0.4%
CCOC(=O)C(=O)NNc1ccccc1OC	2.2	0.651	-1.6	5.2	22.9	-1.3	2.6%
CC(=O)OC1c2ccccc2C(=O)N1c1ccccc1C (stereo unspecified)	0.8	0.722	3.6	1.6	2.8	-2.6	21.2%
CCn1c(CN2CCN(CCO)CC2)nc2ccccc21	1.0	0.677	-2.4	1.2	-2.6	-1.2	-0.6%
Cc1cccc(NC(=O)CCCc2ccccc2)c1	-0.9	0.68	-4.6	6.3	-6.4	-2.6	/
O=C(CCl)c1ccc(Cc2ncc(C(F)(F)F)cc2Cl)s1	0.8	0.752	-0.9	8.3	21.2	2.4	17.8%
O=C1C=C(c2ccccc2)C[C@H](c2cccs2)[C@H]1n1nnc([N+](=O)[O-])n1	0.0	0.66	-5.5	2.0	-5.0	-4.0	27.6%
CC(NC(=O)CCNC(=O)c1ccc(Br)cc1)c1ccc(-n2ccnc2)cc1 (stereo unspecified)	0.1	0.672	2.9	3.0	-2.2	-3.6	2.0%
COc1ccc(CN(Cc2cccn2C)S(=O)(=O)c2ccc(C)cc2)cc1	0.5	0.726	4.4	3.6	18.9	-6.6	6.9%
CC1(C)CSC(=NCCc2ccccc2)N1	0.3	0.663	1.6	2.5	2.0	-2.6	-12.7%
COc1ccc(CCNC(=O)N2c3ccccc3Sc3ccccc32)cc1	?	0.782	3.2	-1.9	15.8	-2.8	1.1%

(list continues)
compound	Bfl-1 A1 inh	Ecoli growth	HNF4A DNA FP	UCH37 DUB inh	Beta2AR agonist	LANA-H2A inh	Vif A3G
Cc1ccc2c(C(=O)CN3CCN(C4CCCCC4)CC3)c(C)[nH]c2c1	1.4	0.687	-0.1	5.6	6.4	-1.6	-4.5%
NC(=O)CCn1c(=O)oc2ccccc21	-0.8	0.735	-1.3	1.3	-1.7	1.2	-4.3%
CCN(C(=O)CSc1nnc(Nc2ccccc2)s1)C1CCS(=O)(=O)C1 (stereo unspecified)	0.8	0.66	-3.7	-1.1	-4.1	-0.9	/
CC(=O)NCC1CCCN(Cc2cn(-c3ccccc3)nc2-c2ccc3c(c2)OCO3)C1 (stereo unspecified)	0.7	0.716	-3.2	-0.5	-13.4	-4.4	7.8%
O=C(/C=C/c1cccs1)NC(=S)NNC(=O)c1ccccc1O	-0.4	0.602	1.8	4.7	5.4	3.8	2.8%
NS(=O)(=O)c1ccc(CCNC(=S)NC2CCCC2)cc1	0.0	0.706	0.6	3.4	4.5	15.9	1.7%
Clc1ccc(CSc2nnc3c(n2)[nH]c2ccccc23)cc1	-1.1	0.702	-2.0	3.5	-4.9	-1.6	5.0%
CCCN(CCC)C(=O)CC(c1ccccc1)c1cc(C)ccc1O (stereo unspecified)	0.0	0.724	-1.2	4.8	4.4	-5.9	-0.1%
CC(C)C(=O)Nc1cccc(-c2cn3ccsc3n2)c1	0.2	0.746	-1.8	1.1	-17.6	-2.2	-2.4%
CN(C)CCCNC(=O)CCC1CCCCC1	-0.2	0.702	-0.4	-0.3	0.9	1.2	0.6%
Cc1ccc(CNC(=O)Cn2c(=O)oc3ccccc32)o1	1.0	0.665	3.0	1.0	2.6	0.8	-6.2%
COc1ccc([N+](=O)[O-])cc1COc1cc(C)cc2oc(=O)cc(-c3ccccc3)c12	-0.2	0.775	-2.9	5.4	1.2	-6.7	?
CCOC(=O)c1c(C)[nH]c(C(=O)Nc2ccc(C)c(Cl)c2)c1C	0.3	0.712	/	1.6	/	-0.1	-3.7%
COc1cc(C(=O)OCC(=O)NC2CCCCCC2)ccc1OCC(C)C	-0.8	/	-1.6	/	-13.3	-2.5	/

Screens as filed in PubChem BioAssay.
